# Vaccinia Venus – inhibitors of vaccinia virus (Venus reporter); Vaccinia virus Venus reporter expression, fluorescence; Potency, µM (top dose mostly 36.5 µM), for the others: at the highest dose activity change, negative = inhibition, hits mostly inhibitors; actives 0.46% (n = 330,000); active means well fitted inhibition curve with a large enough effect; inconclusive means small, poorly fitted or top-dose-only effect; inactive means no such curve, though single readings can be large or run the other way; tested in A549 cells; also: nearly all actives have a fitted effect of over 30% in size; inactives centre near -10
# VACV mCherry inh – inhibitors of vaccinia virus infection (mCherry reporter signal) | Potency, µM (series often up to 36.5 µM), inactives show at the top dose activity change, negative = inhibition, hits mostly inhibitors | actives 0.63% (n = 310,000) | Vaccinia virus mCherry reporter infection, fluorescence; about a quarter of the inactives have no number; active = well fitted inhibition curve with a large enough effect; inconclusive = small, poorly fitted or top-dose-only effect; inactive = no such curve, though single readings can be large or run the other way; tested in A549 cells; also: nearly all actives have a fitted effect of over 35% in size; inactives centre near -10
# Active calls of the source: *; i = inactive; ? = inconclusive; · = no result given; & = joins results of further samples; [ ] = dose if it differs, or a comment. % is scaled to controls: 0 for no effect and ±100 for the full control effect; potency is read from the fitted curve at half-maximal effect.
molecule	Vaccinia Venus	VACV mCherry inh
COCCNC(=O)C1(C)CCN(C(=O)c2ccc3sccc3c2)C1 (centres undefined)	4.4%	12.3%
CCc1cccc(NC(=O)CSc2ncc3c(n2)-c2ccc(Cl)cc2N(Cc2ccccc2)S3(=O)=O)c1	-17.7%	-25.5%
COC(=O)c1ccccc1NC(=O)COc1ccccc1C(=O)Nc1ccccc1	-3.7%	-4.7%
CCN(CC(=O)Nc1c(F)cccc1F)C(=O)C1CC1C (centres undefined)	2.4%	-12.3%
CCc1ccccc1NC(=S)N(CCN1CCCCC1)Cc1ccco1	-5.4%	-12.5%
Cc1ccc(NC(=O)c2ccc(S(=O)(=O)NCc3cccnc3)cc2)c(C)c1	-20.7%	-19.2%
CCCCN(C)C1CCN(C(=S)Nc2ccc(OC)cc2)CC1	2.1%	-6.7%
CCOc1ccc(CN2CCOc3ccc(C(O)c4cccnc4)cc3C2)cc1 (centres undefined)	-13.4%	-19.1%
O=C(Nc1ncc(Cc2cccc(Cl)c2)s1)C1CCCO1 (centres undefined)	-13.9%	-12.2%
CCN(CC)S(=O)(=O)c1ccc(Cl)c(C(=O)Nc2nncs2)c1	-2.3%	·
CC(C)[C@H](NC(=O)c1ccc(C(C)(C)C)cc1)C(=O)Nc1nnc(C2CC2)s1	-19.4%	i
CN(Cc1ccccc1)C(=O)c1ncn(C)c1C(=O)N(C)Cc1ccccc1	-7.5%	-4.3%
COc1cc(/C=N/NC(=O)CC23CC4CC(CC(C4)C2)C3)cc(Br)c1OCC(=O)N(C)C	?	i
CCOC(=O)C1CCCN(C(=O)c2cc(F)ccc2C)CC1 (centres undefined)	-7.3%	i
CCCCCOc1c(Cl)cc(C(=O)N(Cc2ccc(C)o2)C2CCS(=O)(=O)C2)cc1Cl (centres undefined)	-10.7%	i
Cc1ccc2oc(-c3ccc(NC(=O)c4cccnc4)cc3)nc2c1	?	·
CCN(CC)C(=O)[C@H]1CC(CC(=O)NCCc2ccccn2)C(=O)N2CCc3c([nH]c4ccc(OC)cc34)[C@]12C (some centres undefined)	0.0%	i
Cc1ccc(C(=O)NCC(=O)N2CCN(S(=O)(=O)c3cccs3)CC2)s1	-14.3%	-20.0%
O=c1oc2ccc(F)cc2cc1-c1nc(-c2cccs2)no1	-1.3%	-8.2%
CCC(c1nnnn1Cc1ccccc1)N(Cc1ccco1)Cc1cc2cc(OC)ccc2[nH]c1=O (centres undefined)	-17.4%	·
CCN(CC)CCCNC(=O)c1ccc(OCC(=O)Nc2ccccc2C(F)(F)F)c(OC)c1	-16.6%	i
C#CCO[C@@H]1C[C@H](n2cnc3c(=O)[nH]c(NC(=O)C(C)C)nc32)O[C@@H]1CO	-6.5%	-24.2%
CCOc1ccc(C(=O)NCC(=O)N2CCCC2)cc1	-8.1%	-4.6%
CCOc1ccc(CN(C)C(=O)NNC(=O)c2ccc(C)cc2)cc1OC	-5.5%	-4.3%
COc1ccc(C(=O)NC2CCN(CC(=O)NCc3cccc(OC)c3)CC2)cc1	-4.9%	i
CC(C)C[C@H]1CN(CCCC[C@H]2CNC(=O)C(=O)N2CCc2ccc(O)cc2)C(=O)C(=O)N1CCC1CCCCC1	-2.9%	3.2%
O=[N+]([O-])c1ccc(S(=O)(=O)N2CCSC2c2ccco2)cc1 (centres undefined)	?	?
Cc1cc(NC(=O)c2cc(-c3ccc(F)cc3)on2)nn1Cc1ccc(Cl)cc1	-21.8%[7.34 µM]	-12.8%[7.34 µM]
CCn1cc(/C=N\NC(=O)c2ccccc2Cl)cn1	-0.3%	-8.0%
CCCCOC(=O)Nc1nnc(CC(=O)NCc2ccccc2)s1	-6.3%	-7.8%

molecule	Vaccinia Venus	VACV mCherry inh
O=C(CN(C(=O)c1ccc2c(c1)OCCO2)c1ccccc1)NCC1CCCO1 (centres undefined)	-14.3%	-0.5%
CCc1ccc(/C=N/NC(=O)c2cc(-c3ccncc3)nc3ccccc23)s1	-17.3%	?
COCCn1c(C)cc(C(=O)CSc2nc(C)c(C)c(C)n2)c1C	-13.0%	-18.8%
Cc1cccc(Nc2nc3c(S(=O)(=O)c4ccccc4)nnn3c3ccccc23)c1	3.3%	i
CC(=O)c1c(N2CCN(C(=O)C3CCCO3)CC2)nc(=S)n(-c2ccccc2)c1C (centres undefined)	-7.5%	-1.8%
O=C(CN1CCN(c2ccccn2)CC1)Nc1ccc(OCc2ccccc2)cc1	10.6%	i
CCCC(=O)OCC(=O)c1[nH]c(C)c(C(C)=O)c1C	1.2%	-0.1%
CC1CCCN(S(=O)(=O)c2cccc(C(=O)OCC(=O)N(C)Cc3c(F)cccc3Cl)c2)C1 (centres undefined)	-8.3%	i
COc1ccc(NCC(=O)N/N=C2\CCc3ccccc32)cc1	-8.5%	-27.1%
Cn1c(=O)c2c(nc(N/N=C/c3c(O)n(C4CCCCC4)c(=S)[nH]c3=O)n2C)n(C)c1=O	-1.1%	-14.6%
COc1ccccc1C(=O)NCCC(=O)N1CCN(c2ccccc2O)CC1	-21.0%	-11.3%
Cc1c(Cl)c([N+](=O)[O-])nn1CC(=O)NCc1ccco1	-18.0%	·
Cc1nc(CCNC(=O)c2ccccc2)cs1	-15.7%	-14.6%[1.46 µM]
O=C(NCCc1c[nH]c2ccccc12)c1cnccn1	-13.3%	i
CCCCOc1ccc(C(=O)NCCS(=O)(=O)N2CCN(c3ccccc3OC)CC2)cc1	-25.5%	-24.9%
COc1ccc(-c2ccnc(SCC(=O)N3CCOCC3)n2)cc1	-16.2%	-19.7%
O=[N+]([O-])c1cccc(-c2c(-c3ccccc3)ncc3cc(F)ccc23)c1	-15.5%	-4.6%
COC1Cc2ccccc2N(C(=O)N2CCN(CCO)CC2)c2ccccc21 (centres undefined)	-4.3%	-19.0%
COCCNC(=O)CSc1nc2ccccc2nc1Cc1ccc(C)cc1	-1.3%	-5.8%
CCC(=O)N1c2ccccc2CC1C(=O)NCCCN1CCN(c2cc(C)ccc2C)CC1 (centres undefined)	-19.7%	-23.0%
O=c1[nH]c(=S)c2n[nH]nc2[nH]1	-5.8%	21.5%
CCC1=C(C)C(N2CCOCC2)=NP(N2CCOCC2)(N2CCOCC2)=N1	-7.6%	-6.4%
O=C(c1ccccc1)N(c1ccccc1)c1ccccc1O	-19.8%	?
CC1(C)N=C(N)N=C(N)N1c1cccc(CN)c1	-17.7%	-2.0%
CC(=O)N1C(=O)CC(C)N(C(C)=O)c2ccc([N+](=O)[O-])cc21 (centres undefined)	-2.2%	-2.4%
O=C(Nc1ccccc1C(=O)N1CCOCC1)c1cccc(S(=O)(=O)N2CCCC2)c1	-7.9%	i
O=C(NCCc1c[nH]c2ccc(Cl)cc12)c1ccc([N+](=O)[O-])cc1	1.1%	4.3%
O=C(COc1ccc(F)cc1F)N1CCCCCCC1	-4.9%	-13.9%
COc1ccc(Nc2nc(NCc3ccco3)nc(N/N=C/c3ccccc3)n2)cc1	-17.8%	·
COc1ccc(-c2noc(Cc3cccs3)n2)cc1	-6.4%	·

molecule	Vaccinia Venus	VACV mCherry inh
COC(=O)c1sccc1NC(=O)c1ccc(Br)o1	-5.2%	·
COc1ccc(C2Nc3ccc(NC(C)=O)cc3C(=O)N2Cc2cccc(Cl)c2)cc1COc1ccc(NC(C)=O)cc1 (centres undefined)	-15.0%	-1.5%
O=C(NN=Cc1cccc(O)c1O)c1ccccc1	?	10µM*
O=C(Nc1c(O)c2ccccc2oc1=O)c1cccc(F)c1	-14.5%	-6.8%
COCCNC(=O)COc1ccc(OCCNC[C@H](O)COc2ccccc2)cc1	-14.3%	i
CC(C)CC(=O)NC(c1ccccc1Cl)c1c(O)ccc2ccccc12 (centres undefined)	?	?
COC(=O)C1=C(N)Oc2cc(C)n(CCCn3ccnc3)c(=O)c2C1c1ccc(Cl)cc1 (centres undefined)	-27.5%	·
COC(=O)c1cccc(N(C(=O)c2ccco2)C(C(=O)NC2CCCC2)c2ccc(N3CCOCC3)cc2)c1 (centres undefined)	5.2%	-5.4%
CN(Cc1ccccc1)C(=O)c1ccc(NC(=O)Cc2ccc([N+](=O)[O-])cc2)cc1	?	-30.5%
O=c1[nH]c(Cc2ccccc2Cl)nc2ccccc12	-16.8%	i
O=C(CC1C[C@H](C(=O)N2CCOCC2)[C@@]2(CCC3CCCC3)c3[nH]c4ccccc4c3CCN2C1=O)NCCC1=CCCCC1 (some centres undefined)	-27.8%	-6.5%
c1ccc(C(c2ccccn2)c2ccccn2)cc1	-9.4%	i
COc1ccccc1OCC(=O)Nc1ccc2c(c1)C(=O)N(CC1CCCO1)C2=O (centres undefined)	-9.2%	-10.3%
COc1cccc(CNC(=O)C(CC(C)C)NC(=O)c2ccccc2C)c1 (centres undefined)	-7.4%	-15.5%
O=C(CSc1nnc(-c2cccs2)o1)Nc1cccc(S(=O)(=O)N2CCCCC2)c1	-7.8%	-7.6%
CCOc1ccc(NC(=O)/C=C\C(=O)N(c2ccc(C(C)C)cc2)C(C(=O)NCc2ccco2)c2ccc(F)cc2)cc1 (centres undefined)	?	-24.1%
CC1(c2ccccc2)NC(=O)N(N)C1=O (centres undefined)	-4.3%	-6.3%
CSc1ccc(CCNC(=O)CCc2c(C)nc3ncnn3c2C)cc1	0.1%	3.5%
CCN1CCN(C(=S)Nc2ccc([N+](=O)[O-])cc2)CC1	-16.8%	-22.1%
Cn1nnc2cc(C(=O)N3CCC(c4ccccc4)C3)ccc21 (centres undefined)	-13.2%	-0.4%
Cc1ccc(S(=O)(=O)N2CCCC2)cc1C(=O)O	-1.6%	-2.7%
CC(=O)CC1c2cc(F)ccc2C=C(c2ccsc2)N1c1ccc(-c2ccc(C(N)=O)cc2)cc1 (centres undefined)	-8.8%	-14.1%
CCC1(C)SC(N)=NN1C(C)=O (centres undefined)	-13.0%	2.3%
C[C@H](CO)N1C[C@H](C)[C@@H](CN(C)C(=O)Nc2ccccc2)Oc2ccc(NC(=O)C3CC3)cc2C1=O	-1.3%	i
Cc1ccn2c(NC(=O)c3cccc(Cl)c3)c(-c3ccccc3)nc2c1	-14.3%	-12.8%
N#CC1c2ccccc2-c2ccccc2N1C(=O)c1ccccc1 (centres undefined)	?	-9.3%
Cc1cc(C)c(C)c(S(=O)(=O)N2CCC(C(=O)NNC(=O)c3ccccc3O)CC2)c1C	?	?
c1ccc(COc2ccc3nocc3c2)cc1	-9.3%	-17.0%
COCCNC(=O)C(C)N1c2cccc3cccc(c23)S1(=O)=O (centres undefined)	-12.9%	-16.1%
O=C(Cn1ncn2nc(-c3cccs3)cc2c1=O)NCc1cccc(Br)c1	-6.3%	-10.6%

molecule	Vaccinia Venus	VACV mCherry inh
Cc1cc(C)nc(NC(=O)c2c(Cl)cccc2Cl)n1	-14.2%	-4.4%
O=C(c1ccco1)N1CCN(CCOCCOc2cccc3ccccc23)CC1	-9.6%	i
CCN(CC)S(=O)(=O)c1ccc(OC)c(NC(=O)CC2CCCC2)c1	-7.9%	-11.8%
CCOC(=O)Cn1c(=O)oc2cc(S(=O)(=O)N3CCc4ccccc43)ccc21	-2.8%	-12.7%
C#CCn1c(=NC(=O)c2ccc(S(=O)(=O)N3CCc4ccccc4C3)cc2)sc2cc(S(N)(=O)=O)ccc21	7.94µM*	6.31µM*
O=C(c1ccccc1)c1ccc(Cn2cc(-c3ccccc3)nn2)cc1	-23.2%&-24.8%	-5.2%
COc1ccc(-c2nc3scc(CCNC(=O)c4cccc(Br)c4)n3n2)cc1	-19.9%	-22.0%
O=C1Nc2ccccc2Nc2ccccc21	-0.3%	i
CC(C)Oc1ccc(S(=O)(=O)N2CCOCC2)cc1NC(=O)C1=NN(c2ccccc2)C(=O)CC1	-17.5%	i
CS(=O)(=O)c1ccc([C@@H](O)[C@@H](CO)NC(=O)C(Cl)Cl)cc1	-15.8%	-3.9%
CCOc1cc(/C=N/NC(=O)C(=O)NCCCOC(C)C)cc(Br)c1O	-2.9%	i
C/C(=N\Nc1nc2ccccc2[nH]1)c1ccc(N2CCOCC2)cc1	-11.9%	-17.8%
Cc1ccsc1C(=O)NCCC(c1ccccc1)c1ccccc1	-13.6%	-18.2%
Cc1ccc(C(=O)N(C)c2ccc(OCC(=O)N3c4ccc(C)cc4C4CN(C)CCC43)cc2)cc1 (centres undefined)	-9.7%	i
CCc1cnc2c(c1SCC(=O)c1ccc(Cl)cc1)c(=O)n(C)c(=O)n2C	-16.1%	-17.9%
CCOC(=O)C1=C(C)N(CCCC(=O)O)C(=O)NC1c1ccc(Cl)cc1 (centres undefined)	-6.4%	i
COc1ccccc1CN1CCN(S(=O)(=O)c2ccc(C)cc2)CC1	-6.8%	-9.6%
Cc1ccc(S(=O)(=O)N2CCC(=O)N([C@H](COCc3ccccc3)Cc3ccccc3)CC2)cc1	-4.1%	-0.1%
COc1ccc(C(=O)NCC(=O)N/N=C/C(C)=C/c2ccccc2)cc1OC	-14.3%	-8.9%

# Assay outcomes (PubChem)
